Calb FLC: C. albicans growth inhibition with fluconazole, primary screen, CaCi-2 strain, Alamar Blue fluorescence | C. albicans CaCi-2 (fluconazole-resistant clinical isolate) + fluconazole, 48 h | growth inhibition, % (test concentration not listed) | 300,000 compounds, 0.57% hits | AID 1979, 2009;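 active means most replicates above 75%; inconclusive means exactly half above 75%; inactive means most below 75%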;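 further: all wells also contain fluconazole at 8 µg/ml as a sub-toxic cotreatment; 0% = median of DMSO wells and 100% = median of geldanamycin control wells; wells of about 8 µL received 7.5 nL stock; the first replicate is given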
LANA-H2B inh: blockers of LANA interaction with H2A/H2B – biochemical, FP readout, HTS, primary screen | Protein LANA1 (Human herpesvirus 8 type P (isolate GK18)), Q9QR71 | cell-free LANA-H2A/H2B peptide, fluorescence polarization | inhibition, % (concentration not given with the values) | 320,000 compounds, 0.6% hits; in the data active means inhibition mostly above about 10%, no sharp cut-off; inactive means mostly below about 6.7%;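 further: stock transfer was 7.5 nL into about 10 µL; 0% = median of vehicle wells and 100% = median of positive control wells; one replicate is shown; the record names a cut of 25% in any replicate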
Target sequence (Q9QR71 whole entry, looked up): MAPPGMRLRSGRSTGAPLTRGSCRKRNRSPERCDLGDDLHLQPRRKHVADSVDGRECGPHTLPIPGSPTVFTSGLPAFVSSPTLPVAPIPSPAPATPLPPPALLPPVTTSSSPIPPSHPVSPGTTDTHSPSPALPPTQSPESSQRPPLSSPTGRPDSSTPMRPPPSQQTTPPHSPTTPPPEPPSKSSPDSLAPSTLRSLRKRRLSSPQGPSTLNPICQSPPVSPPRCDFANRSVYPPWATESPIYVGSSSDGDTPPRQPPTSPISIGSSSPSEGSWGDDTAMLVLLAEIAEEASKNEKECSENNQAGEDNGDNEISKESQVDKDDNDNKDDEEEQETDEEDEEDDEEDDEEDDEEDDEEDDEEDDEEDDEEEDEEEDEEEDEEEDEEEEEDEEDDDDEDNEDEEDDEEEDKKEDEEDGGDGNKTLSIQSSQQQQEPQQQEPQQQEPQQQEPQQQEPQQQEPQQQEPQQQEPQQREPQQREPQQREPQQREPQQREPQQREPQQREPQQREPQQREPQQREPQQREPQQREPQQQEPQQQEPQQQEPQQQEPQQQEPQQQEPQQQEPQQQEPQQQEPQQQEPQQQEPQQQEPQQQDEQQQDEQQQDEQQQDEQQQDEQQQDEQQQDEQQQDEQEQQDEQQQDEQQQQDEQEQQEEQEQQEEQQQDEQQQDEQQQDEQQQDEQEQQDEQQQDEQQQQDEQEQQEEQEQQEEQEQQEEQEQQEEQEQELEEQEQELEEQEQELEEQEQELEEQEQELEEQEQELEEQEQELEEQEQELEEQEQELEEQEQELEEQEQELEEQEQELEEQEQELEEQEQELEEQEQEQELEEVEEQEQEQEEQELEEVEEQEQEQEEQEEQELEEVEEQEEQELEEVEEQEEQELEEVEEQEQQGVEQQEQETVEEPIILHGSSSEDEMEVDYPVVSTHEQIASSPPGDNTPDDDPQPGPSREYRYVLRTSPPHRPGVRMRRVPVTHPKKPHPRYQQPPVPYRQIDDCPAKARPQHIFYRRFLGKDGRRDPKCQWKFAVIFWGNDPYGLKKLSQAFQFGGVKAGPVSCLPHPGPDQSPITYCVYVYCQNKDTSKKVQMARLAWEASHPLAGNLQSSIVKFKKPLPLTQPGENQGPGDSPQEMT
B2AR ag: beta2AR agonists driving receptor internalization, primary screen, cell-based, FAP fluorogen, flow cytometry; Beta-2 adrenergic receptor (Homo sapiens), P07550; AID 504454, 2011; Am2.2-beta2AR cells; reference of the scale not given here; response, % (test concentration not listed); 340,000 compounds, 0.43% hits;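 active means response above a set limit, near 3 SD of response in nonfluorescent compounds, cut at about 42% in these data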;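 further: stock transfer was 100 nL into about 11 µL; a reference agonist was the positive control; negative values mostly stem from fluorescent compounds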
Ecoli rRNA inh: reduced GFP signal of wild-type E. coli, primary screen, bacterial rRNA inhibitor project, GFP/RFP fluorescence, OD600, single point; E. coli WT GFP vs humanized-ribosome RFP mutants, 24 h; active compounds read low; DMSO median 0, no signal -100; GFP signal change (wild-type ribosome), % (no concentration beside the values); 350,000 compounds, 1.6% hits; AID 720706, 2013;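 active means significant combined selectivity score with lowered wild-type GFP, culture density cut under 30%, mutant RFP and density less affected; inactive means any of these conditions unmet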; further: one replicate is shown; some compounds called inactive have numbers as strong as hits
Bfl-1 A1 inh: caspase 3/7 activation in MEF A1-2A-BIM cells, primary screen, A1 inhibitor project, cell-based, luminescence, HTS; Caspase-Glo 3/7 luminescence, 3 h; percent of clofoctol response, vehicle zero; caspase activation, % (test concentration not listed); 330,000 compounds, 0.066% hits; AID 2462, 2010;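 active means over half of replicate activation scores above 10%, or exactly half above 10 with the replicate mean above 10; inconclusive means replicate mean below 10 yet half the replicates above 10; inactive means over half of replicates below 10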;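 further: wells of about 30 µL received 50 nL stock; many hits fall short of the cut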
Beta cell apopt: inhibitors of cytokine-induced beta cell apoptosis, primary screen, luminescence. INS-1E cytokine-induced death, ATP luminescence, 48 h; percent of positive-control rescue, neutral wells zero. protection from apoptosis, % (concentration not given with the values). 300,000 compounds, 0.8% hits. AID 435005, 2010;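 active means all replicates at 75% or more, or half of them and the mean; inconclusive means half reach 75% but not the mean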;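 further: 0% = cytokine-treated negative control wells and 100% = positive control rescue; higher means more ATP so stronger rescue from cytokine killing; wells of about 40 µL received 100 nL stock; the first replicate is given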
T cruzi repl: inhibitors of intracellular T. cruzi growth, primary screen, luminescence, NIH3T3 host cells; T. cruzi beta-gal in NIH3T3, 90 h; inhibition, % (no concentration beside the values); 300,000 compounds, 1.4% hits;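 active means mean inhibition across valid replicates above about 55%, limit read from the data; inconclusive means mean below that limit but half or more replicates reach it; inactive means mean below it, under half of replicates reach it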;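 further: signal also drops with host cell toxicity which is not excluded here; 0% = plate median of DMSO wells and 100% = zero luminescence signal; higher percent means less beta-gal luminescence so fewer parasites; stock transfer was 50 nL into about 50 µL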
ALR inh: inhibitors of human ALR sulfhydryl oxidase, primary screen, biochemical, H2O2 detection, HRP-luminol luminescence, single point. FAD-linked sulfhydryl oxidase ALR (Homo sapiens), P55789. purified ALR, DTT oxidation. inhibition, % (test concentration not listed). 290,000 compounds, 3.8% hits;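 active means mean and each replicate at 75% or more; inconclusive means only one of the two met; inactive means neither met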;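 further: stock transfer was 7.5 nL into about 7.5 µL; 0% = neutral wells and 100% = wells with inactivated enzyme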
Ecoli rRNA inh OD600: second read-out of Ecoli rRNA inh, no call of its own (marks repeat the call); OD600 change, %; measured here: OD600 growth;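 optical density of the mix in the first replicate; 0 = DMSO median and -100 = no signal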
Ecoli rRNA inh RFP: further read-out of Ecoli rRNA inh, marked with its call; RFP signal change, %; measured here: RFP humanized mutant strains;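 first replicate; 0 = DMSO median and -100 = no signal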
* marks the source's active call; other numbers are inactive results; ? = inconclusive; . = not tested or not shown.

canonical_smiles	Bfl-1 A1 inh	Ecoli rRNA inh RFP	Ecoli rRNA inh OD600	B2AR ag	ALR inh	LANA-H2B inh	T cruzi repl	Calb FLC	Beta cell apopt	Ecoli rRNA inh
O=C(CSc1nc2ccc([N+](=O)[O-])cc2[nH]1)NC1CCCCC1	0.0	.	.	-1	22	-0.3	-9	?	20	.
O=C(CN1CCN(C(=O)C2CCCO2)CC1)Nc1ccc(Cl)cc1 (centres undefined)	0.3	-0.4	6	-4	-2	-0.2	-4	29	1	9
COc1cccc(C2C3=C(N=c4s/c(=C\c5ccc(O)cc5)c(=O)n42)c2ccccc2CC3)c1OC (centres undefined)	0.2	14	2	7	-17	-4.0	9	3	-7	0
COc1ccccc1C(=O)Nc1nnc(S(=O)(=O)N2CCOCC2)s1	0.0	-1.8	-1	-6	-5	-6.1	18	-6	-3	-1
COc1ccccc1NC(=O)c1oc2ccccc2c1NC(=O)c1ccco1	0.8	.	.	6	0	-7.9	8	6	9	.
NC1=NC2(CCCCC2)n2c(nc3ccccc32)N1	1.0	.	.	-7	12	1.7	26	-35	-2	.
N#C/C(=N\Nc1ccccc1)C(=N)N1CCOCC1	-0.2	3.9	13	-6	22	0.5	-6	1	3	2
CCN1C(=O)c2cccc3c(S(=O)(=O)Nc4ccncc4)ccc1c23	1.2	.	.	-6	-8	-3.2	-6	-2	.	.
O=C(Cc1ccc(Cl)cc1)Nc1ccc(N2CCCC2)cc1	-3.6	.	.	2	-20	9.7	13	3	-2	.
Cc1ccc(NC(=O)COC(=O)c2ccc3c(c2)OCCO3)cc1S(=O)(=O)N1CCOCC1	0.1	1.4	-5	-3	1	0.0	0	-22	.	6
CC(=O)Nc1cccc(-n2nnc(SCC(=O)Nc3ccc(F)c(Cl)c3)n2)c1	0.8	6.8	4	3	-4	-1.7	1	23	0	15
Cc1cccc(Nc2nc(N3CCN(C)CC3)nc(N)c2[N+](=O)[O-])c1	0.9	.	.	1	-1	0.1	27	-23	7	.
Cc1cc(Br)ccc1SCC(=O)OCC(=O)N1CCN(C(=O)c2ccco2)CC1	-0.5	-2.1	-7	5	-4	-1.6	-11	16	-1	-5
COc1ccc(CC(=O)NCc2n[nH]c(=S)n2C)cc1	0.7	-8.6	-1	4	97*	1.6	-8	1	-2	13
O=C(Nn1cnnc1)c1ccc(Br)s1	-0.7	0.7	13	6	29	-0.9	-13	-4	-4	18
CCOc1cc(/C=C2\N=C(C)OC2=O)cc(Cl)c1OCC(=O)OC	-0.2	1.5	1	10	12	0.4	-17	-1	-10	20
CCN(CC)S(=O)(=O)c1ccc(NC(=O)COC(=O)c2ccc(-n3nc(C)cc3C)cc2)cc1	-0.1	8.2	-4	-5	-3	-3.2	.	.	-9	-11
C#CCOCCOCCOCCNc1nc(N2CCN(C(=O)[C@H]([C@@H](C)O)n3cc(CCCCN)nn3)CC2)nc(N2CCN(C(=O)[C@H](Cc3ccc(O)cc3)n3cc(CCO)nn3)CC2)n1	-0.3	1.1	7	-4	-13	3.9	-7	1	3	7
COc1ccc(OC)c(C(C)NC(=O)C(C)Cc2ccccc2)c1 (centres undefined)	1.0	-0.1	-6	1	7	-1.2	-8	-4	2	-11
COc1cccc(CC(=O)Nc2cc(S(=O)(=O)N3CCCCC3)ccc2C)c1	0.9	0.4	-6	-1	11	-0.4	.	.	-10	0
CSc1ncccc1C(=O)OCC(=O)Nc1ccc(Cl)cn1	0.6	0.1	2	5	-2	3.5	.	.	-9	2
O=C(O)c1ccc(C(=O)C(=O)c2ccccc2)cc1	-5.1	-0.4	2	4	-10	-0.4	-1	-1	3	4
COCCCN1C(=O)C(=O)/C(=C(/O)c2ccc(OC)cc2C)C1c1cccnc1 (centres undefined)	0.6	.	.	6	-12	1.8	-10	-1	.	.
Cc1ccc(C(=O)N/C(=C\c2ccc(-c3cccc([N+](=O)[O-])c3)o2)C(=O)NCCCN2CCOCC2)cc1	1.2	-0.5	-9	-11	-3	0.7	26	6	10	-14
O=C(NCc1cccnc1)C(=O)NCC(c1ccco1)N1CCOCC1 (centres undefined)	-0.8	-2.1	4	10	0	-2.1	-5	-5	-5	4
COCCOC(=O)C1=C(N)Oc2c(oc(CO)cc2=O)C1c1ccccc1F (centres undefined)	0.4	0.8	-1	6	-10	-0.9	-16	-4	7	6
Cc1oc(/N=C/c2ccc(Cl)cc2)c(C#N)c1C	0.6	.	.	8	1	-1.8	-1	-2	-1	.
CN(CC(=O)NCCN1CCCCCC1)S(=O)(=O)c1cccc2nsnc12	0.1	.	.	0	-13	-3.3	0	-10	-1	.
COc1cccc(C(=O)Nc2ccc3nc(N4CCOCC4)cc(C)c3c2)c1	-0.1	4.5	9	6	-10	1.0	-5	6	.	15
CC1CCN(C2=NC(=O)/C(=C/c3ccccc3F)S2)CC1	0.4	4.4	-23	4	74	-2.5	-5	2	-4	-2

An excerpt from above in order of number of heavy atoms, rising.
canonical_smiles	Bfl-1 A1 inh	Ecoli rRNA inh RFP	Ecoli rRNA inh OD600	B2AR ag	ALR inh	LANA-H2B inh	T cruzi repl	Calb FLC	Beta cell apopt	Ecoli rRNA inh
Cc1oc(/N=C/c2ccc(Cl)cc2)c(C#N)c1C	0.6	.	.	8	1	-1.8	-1	-2	-1	.
CC1CCN(C2=NC(=O)/C(=C/c3ccccc3F)S2)CC1	0.4	4.4	-23	4	74	-2.5	-5	2	-4	-2
CSc1ncccc1C(=O)OCC(=O)Nc1ccc(Cl)cn1	0.6	0.1	2	5	-2	3.5	.	.	-9	2
O=C(NCc1cccnc1)C(=O)NCC(c1ccco1)N1CCOCC1 (centres undefined)	-0.8	-2.1	4	10	0	-2.1	-5	-5	-5	4
CN(CC(=O)NCCN1CCCCCC1)S(=O)(=O)c1cccc2nsnc12	0.1	.	.	0	-13	-3.3	0	-10	-1	.
Cc1ccc(C(=O)N/C(=C\c2ccc(-c3cccc([N+](=O)[O-])c3)o2)C(=O)NCCCN2CCOCC2)cc1	1.2	-0.5	-9	-11	-3	0.7	26	6	10	-14

The listing continues:
canonical_smiles	Bfl-1 A1 inh	Ecoli rRNA inh RFP	Ecoli rRNA inh OD600	B2AR ag	ALR inh	LANA-H2B inh	T cruzi repl	Calb FLC	Beta cell apopt	Ecoli rRNA inh
Cc1ccnc(NC(=O)c2ccc(NS(=O)(=O)/C=C/c3ccccc3)cc2)c1	0.4	1.7	-12	-10	-2	-0.1	2	1	-2	1
COc1cccc(NC(=O)CN2CCN(c3ccccc3F)CC2)c1	0.3	.	.	-1	0	2.8	5	10	-1	.
O=C(CSc1nnnn1C1CCCC1)Nc1ccc2c(c1)OCO2	-0.2	.	.	-5	1	-5.4	7	-1	9	.
COc1ccccc1N1CCN(C(=O)c2ccc(NC3=NC4CS(=O)(=O)CC4S3)cc2)CC1 (centres undefined)	0.1	-6.2	9	3	-11	3.0	-2	4	-5	-6
CC(C)N(Cc1cnn(C)c1)C(=O)c1ccc(OC2CCN(Cc3ccccn3)CC2)cc1	0.3	3.0	11	-2	-10	1.1	-8	1	-6	12
O=C(CNC(=O)c1ccccc1F)N/N=C/c1cn[nH]c1-c1ccccc1	0.5	4.6	16	3	0	0.6	-31	-1	-11	19
CCCSc1nc(SCC(=O)NCc2ccccc2)c2c3c(sc2n1)COC(C)(CC)C3 (centres undefined)	0.0	.	.	5	1	5.1	35	-3	-6	.
S=C(NCc1cccnc1)Nc1ccc(Cl)cc1Cl	0.0	-7.6*	-3.2*	-6	4	4.5	4	-15	-6	-27*
CS(=O)(=O)N1CCc2cc(S(=O)(=O)Nc3ccc4oc5c(c4c3)CCCC5)ccc21	0.8	.	.	-14	-18	1.4	32	24	.	.
O=C(Cn1cncc1-c1ccc([N+](=O)[O-])cc1)Nc1ccccc1F	0.5	9.2	7	-3	-5	0.0	0	8	-3	3
O=C(c1ccccc1)c1ccc(OCC(O)CNCc2cccc(Cl)c2)cc1 (centres undefined)	1.1	7.6	-33	0	-1	-0.2	47	4	-2	0
Cc1ccc(CCNC(=O)C2CCC(CNc3c(N4CCCC4)c(=O)c3=O)CC2)cc1 (centres undefined)	-0.2	-1.3	9	0	.	-5.4	-10	-3	-4	4
CC(=O)C1=C(C)NC(SCC(N)=O)=C(C#N)C1c1cccnc1 (centres undefined)	0.2	.	.	-2	-14	-0.1	-8	-4	4	.
Cc1cc(C)c(NC(=O)C(C)Sc2nc3ccc(N4C(=O)c5ccccc5C4=O)cc3s2)c(C)c1 (centres undefined)	2.5	.	.	14	-6	-5.5	-18	-28	-10	.
COc1ccccc1NS(=O)(=O)c1ccc2oc(SCc3ccc(F)cc3)nc2c1	0.6	.	.	-5	3	-6.0	-3	1	21	.
CCOc1cc(C(=O)OCc2cc(=O)n3c(C)csc3n2)ccc1OC	-0.7	-1.3	6	5	-3	1.1	.	.	4	4
COc1ccc(CC(=O)Nc2c3c(nn2-c2ccccc2C)CS(=O)C3)cc1 (centres undefined)	-0.8	.	.	-3	-2	0.2	-10	-10	-6	.
COC(=O)C1=C(C)NC(C)=C(C(=O)OC)C1C(=O)OCc1nnc(-c2ccccc2)o1	-1.1	-2.2	12	4	-3	-1.8	-2	3	-4	2
CC1(C(=O)N(Cc2ccccc2)Cc2ccccc2)CC1(Br)Br (centres undefined)	0.1	.	.	2	.	.	9	2	-1	.
Cc1c(NC(=S)NC(=O)Cc2ccccc2)cccc1C(=O)O	0.8	-0.6	5	2	-1	-1.5	-5	-4	-1	6
Cc1ccc(Cl)cc1NC(=O)COC(=O)c1ccc(COc2ccc3c(C)cc(=O)oc3c2)cc1	0.1	.	.	.	18	-3.8	.	.	1	.
O=C(Nc1ccccc1)c1nnn(Cc2ccccc2)c1NC(=O)C(F)(F)F	-0.3	.	.	10	.	-1.0	-4	?	-8	.
Cc1ccccc1-n1nnnc1SCC(=O)NNC(=O)c1ccc(NC(=O)CC#N)cc1	-0.4	0.8	1	-3	24	3.1	.	.	-3	-3
CSc1ncc(C(=O)O)c(C)n1	1.7	-3.4	11	-4	-1	2.8	-21	-2	-7	7

Source: PubChem

Only part of the results is shown; count on the stated rates, not on these rows.
